Screening results: PubChem, National Center for Advancing Translational Sciences (NCATS)
Vaccinia Venus – vaccinia inhibition (Venus reporter); Potency, µM (titrated, usually from 36.5 µM), inactives show at the top dose activity change, negative = inhibition, usual class: inhibitors; Vaccinia virus Venus reporter expression, fluorescence; hit rate 0.46% among 330,000; AID 720580; active means well fitted inhibition curve with a large enough effect; inconclusive means small, poorly fitted or top-dose-only effect; inactive means no such curve, though single readings can be large or run the other way; tested in A549 cells; also: nearly all actives have a fitted effect of over 30% in size; inactives centre near -10
VACV mCherry inh – vaccinia inhibition (mCherry reporter). Vaccinia virus mCherry reporter infection, fluorescence; about a quarter of the inactives have no number. Potency, µM (doses to about 36.5 µM), inactives show at the top dose activity change, negative = inhibition, usual class: inhibitors. hit rate 0.63% among 310,000; active = well fitted inhibition curve with a large enough effect; inconclusive = small, poorly fitted or top-dose-only effect; inactive = no such curve, though single readings can be large or run the other way; tested in A549 cells; also: nearly all actives have a fitted effect of over 35% in size; inactives centre near -10
Numbers without * were called inactive; i = inactive; ? = inconclusive; . = not tested or not shown; & = joins results of further samples; [ ] = remark or other dose. % is scaled to controls: 0 for no effect and ±100 for the full control effect; potency is read from the fitted curve at half-maximal effect.

SMILES	Vaccinia Venus	VACV mCherry inh
Cc1ccc(NC(=O)c2cc(F)c(F)cc2Cl)nc1	-6%	-6%
Cc1nn(CC(=O)OCC(=O)Nc2c(C(C)C)cccc2C(C)C)c(C)c1[N+](=O)[O-]	-7%	-3%
CCOc1ccc(NC(=O)N2CCCC2C(=O)NCc2ccco2)cc1 (stereo not drawn)	12%	i
CCN1CCN(Cc2ccc(NC(=O)c3ccc(C)c(/C=C/c4cnc(Nc5cc(N6CCNCC6)nc(C)n5)cn4)c3)cc2C(F)(F)F)CC1	8.9µM*	?
O=C(O)C(=Cc1ccccc1Cl)c1ccccc1	0%	-10%
CC(=O)Nc1cccc(NC(=O)CSc2nnc3ccccn23)c1	-7%	i
C=CCSc1n[nH]c(-c2ccccc2)n1	-21%	.
COc1ccc(CCN2C(=O)CSC2=Nc2ccc(C)cc2C)cc1OC	-2%	i
CCOC(=O)c1cnc2c(C)cc(C)cc2c1Nc1ccccc1OCC	-4%	-9%
CC(CCc1ccccc1)NC(=O)CN(C)Cc1ccccc1F (stereo not drawn)	-21%	-11%
Cc1ccc(-n2nc(CN3CCOCC3)c(-c3ccccc3)c2N)cc1Cl	-19%	-10%
COCCNc1nc(NCc2cccc(OC)c2)c2sc(-c3ccccc3)cc2n1	-9%	-24%
Cc1cccc(-c2noc(CN(C(=O)/C=C/c3ccccc3Cl)C(C)C)n2)c1	-2%	-15%
CCC(Sc1nncn2c1cc1sccc12)C(=O)Nc1cccc(OC)c1 (stereo not drawn)	-4%	-13%
O=[N+]([O-])c1ccc(/C=C/c2ccncc2)cc1	-16%	i
CC1c2ccsc2CCN1C(=O)NC(=O)c1ccc(Cl)cc1 (stereo not drawn)	-13%	-8%
CC1CN(Cc2csc(-c3ccc(Cl)cc3)n2)CC(C)O1 (stereo not drawn)	-20%	-10%
CCC(=O)NC(c1cccs1)c1cc(Cl)c2cccnc2c1O (stereo not drawn)	?	?
Cc1cc(C)c2nc(N3CCCC(C(=O)NCCCN4CCOCC4)C3)sc2c1 (stereo not drawn)	-28%	?
CC(NC(=O)C(=O)NN=C1CCC(C(C)(C)C)CC1)c1ccccc1 (stereo not drawn)	-11%	-5%
CCCc1nc2cc3c(cc2[nH]1)n(C)c(=O)n3C	-5%	-11%
O=C(Nc1cccc2ccccc12)N(c1ccccc1)c1ccccc1	-17%	i
CCOC(=O)CN1C(=O)C(O)(c2c(C)[nH]c3ccccc23)c2ccccc21 (stereo not drawn)	-3%	-12%
C=CCn1c(O)c(C=NCCCOc2ccc(CC)cc2)c(=O)[nH]c1=S	19%	5%
CC(=O)[C@H]1[C@H](CCc2ccccc2)NC(=O)N(Cc2ccccc2)[C@@H]1C	?	-6%
O=C(CNC(=S)N(CCCN1CCOCC1)Cc1cccs1)NCCCN1CCOCC1	-13%	i
Cc1ccc(S(=O)(=O)Nc2cccc(S(=O)(=O)Nc3ccccc3C(=O)O)c2)c(C)c1	-4%	i
O=C(O)CCCc1ccc2c(c1)CCc1ccccc1-2	-1%	i
COc1cc2c(cc1OC)CN(CC(=O)Nc1ccc(S(=O)(=O)N(C)C)cc1)CC2	0%	0%
COc1ccc(/C(N)=C/C(=O)C(C)(C)C)cc1	-8%	-17%
Cn1c(=O)c2c(SCC(=O)N3CCc4ccccc43)nc(-c3cccc(F)c3)nc2n(C)c1=O	0%	-9%
CCCC[C@@H]1C=C(C(=O)O)[C@H](c2ccc(Cl)cc2)N1S(=O)(=O)c1ccc(C)cc1	5%	1%
CCC(C)NC(=O)CCC(=O)Nc1ccc2nc(N3CC(C)CC(C)C3)cc(C)c2c1 (stereo not drawn)	10%	?
Cc1ccc(C)c(Nc2nc(N)c3ccccc3n2)c1	-21%	-5%
CC(C)C[C@@H](CN1CCC[C@@H]1CN1C(=O)C(=O)NC[C@@H]1Cc1ccccc1)N1C[C@H](Cc2ccc(O)cc2)N(CC2CCCCCC2)C(=O)C1=O	?	?
CC(=O)Nc1ccccc1-c1nc(CNC(=O)c2ccc(C)cc2)c(C)o1	-4%	-5%
O=C(CCCC(=O)N(CC(=O)NC1CCCC1)Cc1ccccc1Cl)Nc1ccccn1	-17%	.
O=C(Nc1ccc(Cl)c(C(F)(F)F)c1)C1Cc2c(-c3ccccc3Oc3ccccc3)ccnc2O1 (stereo not drawn)	-2%	i
CC(C)(C)c1ccc(-c2noc(CCC(=O)N3CCOCC3)n2)cc1	-21%	i
C/C=C1\C2C=C(C)CC1(N)c1ccc(=O)[nH]c1C2 (stereo not drawn)	-6%[87.9 µM]	-13%[87.9 µM]
O=c1[nH]c2cc3c(cc2cc1CN(CC1CCCO1)S(=O)(=O)c1ccc(Cl)cc1)OCCO3 (stereo not drawn)	-5%	-10%
CC(=O)Nc1cccc(C(=O)OCC(=O)c2ccccc2Cl)c1	-10%	-29%
Cc1ccccc1OCC(=O)NNC(=O)c1cc(S(=O)(=O)N2CCOCC2)ccc1N1CCCC1	-1%	-15%
Cc1cccc(-c2ocnc2C(=O)Nc2ncc(C)s2)c1	-18%	-5%
O=C(NC1c2ccccc2Oc2ccccc21)c1ccc([N+](=O)[O-])cc1	-7%	i
COc1ccc(S(=O)(=O)N(CC(=O)N/N=C/c2ccc(C(=O)O)cc2)Cc2ccccc2)cc1OC	-4%	-13%
Cc1ccccc1Nc1c(-c2cccnc2)nc2cccc(C)n12	-28%	-25%
Cn1c(=O)c2c(ncn2CC(COCc2ccc(Cl)cc2)OCc2ccc(Cl)cc2)n(C)c1=O (stereo not drawn)	?	.
Cc1cccc(C)c1Nc1c(-c2ccc(Cl)s2)nc2ncccn12	-10%	-8%
CSc1sc(C(=O)NCC2CC2)c(-c2cccs2)c1C#N	-12%	-1%
COc1cc(CNc2ccc3[nH]c(=O)[nH]c3c2)ccc1OCc1ccccc1Cl	-27%	?
Nc1cc(=O)nc(SCC(=O)NCc2ccccc2)n1CCc1ccccc1	-8%	i
C[C@H](CO)N1C[C@H](C)[C@@H](CN(C)S(=O)(=O)c2cn(C)cn2)Oc2ncc(Br)cc2C1=O	-6%	-4%
Cn1c(=O)[nH]c(=O)c2c1nc(N1CCN(CCO)CC1)n2CCSc1nc2ccccc2s1	-9%	-12%
CCOC(=O)C(NC(=O)NCc1ccccc1OC)(OCC)C(F)(F)F (stereo not drawn)	0%	-16%
CC(=O)Nc1ccc2ccccc2c1[N+](=O)[O-]	-12%	i
CC(=O)Nc1cccc2c1C(=O)NC2=O	-3%	-11%
COC(=O)c1ccc(NC(=O)C2CCCN(S(C)(=O)=O)C2)cc1 (stereo not drawn)	-16%	-13%
COc1ccc(C)cc1S(=O)(=O)n1nc(C)cc1C	1%	10%
COc1ccc2nc(C)cc(SCC(=O)N/N=C/c3c(OC)ccc4ccccc34)c2c1	-8%	i

Arranged by formula weight (ascending): 3 of the compounds above.
SMILES	Vaccinia Venus	VACV mCherry inh
CC(=O)Nc1cccc(C(=O)OCC(=O)c2ccccc2Cl)c1	-10%	-29%
CCOC(=O)C(NC(=O)NCc1ccccc1OC)(OCC)C(F)(F)F (stereo not drawn)	0%	-16%
Cn1c(=O)[nH]c(=O)c2c1nc(N1CCN(CCO)CC1)n2CCSc1nc2ccccc2s1	-9%	-12%

15 of these compounds in a different format.
Compound | Vaccinia Venus | VACV mCherry inh
O=C(NC1c2ccccc2Oc2ccccc21)c1ccc([N+](=O)[O-])cc1 | -7% | i
COc1ccc(S(=O)(=O)N(CC(=O)N/N=C/c2ccc(C(=O)O)cc2)Cc2ccccc2)cc1OC | -4% | -13%
Cc1ccccc1Nc1c(-c2cccnc2)nc2cccc(C)n12 | -28% | -25%
Cn1c(=O)c2c(ncn2CC(COCc2ccc(Cl)cc2)OCc2ccc(Cl)cc2)n(C)c1=O (stereo not drawn) | ? | .
Cc1cccc(C)c1Nc1c(-c2ccc(Cl)s2)nc2ncccn12 | -10% | -8%
CSc1sc(C(=O)NCC2CC2)c(-c2cccs2)c1C#N | -12% | -1%
COc1cc(CNc2ccc3[nH]c(=O)[nH]c3c2)ccc1OCc1ccccc1Cl | -27% | ?
Nc1cc(=O)nc(SCC(=O)NCc2ccccc2)n1CCc1ccccc1 | -8% | i
C[C@H](CO)N1C[C@H](C)[C@@H](CN(C)S(=O)(=O)c2cn(C)cn2)Oc2ncc(Br)cc2C1=O | -6% | -4%
Cn1c(=O)[nH]c(=O)c2c1nc(N1CCN(CCO)CC1)n2CCSc1nc2ccccc2s1 | -9% | -12%
CCOC(=O)C(NC(=O)NCc1ccccc1OC)(OCC)C(F)(F)F (stereo not drawn) | 0% | -16%
CC(=O)Nc1ccc2ccccc2c1[N+](=O)[O-] | -12% | i
CC(=O)Nc1cccc2c1C(=O)NC2=O | -3% | -11%
COC(=O)c1ccc(NC(=O)C2CCCN(S(C)(=O)=O)C2)cc1 (stereo not drawn) | -16% | -13%
COc1ccc(C)cc1S(=O)(=O)n1nc(C)cc1C | 1% | 10%

Other structures.
SMILES	Vaccinia Venus	VACV mCherry inh
COc1cc(C2CC(=O)Nc3ccc4ccccc4c32)ccc1OC(=O)C(C)C (stereo not drawn)	-6%	-14%
COc1ccccc1CNC(=O)Cn1c(=O)nc(-c2ccccc2)c2ccccc21	-7%	-14%
CNS(=O)(=O)c1cccc(C(=O)NNC(=O)CN(C)S(=O)(=O)c2ccc(Cl)cc2)c1	-12%	-13%
CC(=O)c1ccc(NC(=O)CC(NCCC2=CCCCC2)C(=O)O)cc1 (stereo not drawn)	-16%	i
COc1ccc(C)cc1NC(=O)C(=O)NCC(c1cccnc1)N1CCN(c2ccccc2F)CC1 (stereo not drawn)	-14%	-23%
Cc1cccc(NC(=O)c2nc[nH]c2C(=O)N[C@@H](Cc2ccccc2)C(=O)OCc2ccccc2)c1	-22%	i
CCn1nnnc1SCC(=O)Nc1sc(C)c(C)c1C#N	-20%	-3%[1.46 µM]
NS(=O)(=O)c1ccc(NC(=O)COC(=O)COc2ccc3ccccc3c2)cc1	-12%	-11%
CSc1ccccc1C(=O)OCC(=O)NC1CC1	-10%	-4%
C=CCSc1ncccc1C(=O)O	-6%	-8%
N#C/C(=C\Nc1ccc2cn[nH]c2c1)c1nc(-c2ccc(Cl)cc2)cs1	5%	4%
COc1cccc2cc(C(=O)c3ccc([N+](=O)[O-])cc3)oc12	4%	?
CC1Cc2nc(SCC(=O)Nc3ccc4c(c3)OCO4)n(-c3ccc(F)cc3)c(=O)c2S1 (stereo not drawn)	-3%	7%
Cc1ccc(-n2nc(C)c(NS(=O)(=O)c3ccccc3)c2C)cc1C	-19%	0%
Cn1cnc(S(=O)(=O)N2CCC(C(=O)NCc3ccccc3)CC2)c1	-17%	i
O=C(NCc1ccc2c(c1)OCO2)c1ccc2c(c1)N(Cc1ccccc1F)C(=O)c1ccccc1S2=O (stereo not drawn)	-12%	-2%
CCCCN=C(C)c1c(O)c2ccccc2oc1=O	-10%	-2%
CN(NS(C)(=O)=O)c1c(C#N)c(C(F)(F)F)nn1C	-9%	-11%
Cc1ccc(CNC(=O)CCCn2c(=O)c3sccc3n(CC(=O)Nc3c(C)cccc3C)c2=O)cc1	-5%	-9%
Cc1ccc(Nc2c(-c3ccc(Br)o3)nc3ccccn23)cc1	-4%	-3%
COc1cc(C2C3=C(COC3=O)Oc3cc4c(cc32)OCO4)ccc1OC(C)=O (stereo not drawn)	-20%	-10%
CCCn1c(SCC(=O)NC2CCCCC2C)n[nH]c1=O (stereo not drawn)	-25%	-2%
COc1ccc(OC)c(-c2csc(NC(=O)CSCc3c(C)noc3C)n2)c1	-12%	i
CCc1nn2c(N3CCOCC3)cc(C)nc2c1-c1ccc(F)cc1	-13%	i
Cc1cccc2sc(N(Cc3cccnc3)C(=O)COc3ccccc3)nc12	-10%	i
O=C1c2ccccc2C(=O)N1CC1c2ccccc2CCN1S(=O)(=O)c1cnc[nH]1 (stereo not drawn)	-8%	-19%
COc1cc(NC(=O)c2cc(-c3ccc4c(c3)OCO4)on2)cc(OC)c1OC	-5%&-27%	?
Cc1c(Cl)cccc1N(Cc1ccc(C(=O)O)cc1)S(=O)(=O)c1ccccc1	-14%	i
C#CCOCCOCCOCCNc1nc(N2CCOCC2)nc(N2CCN(C(=O)[C@H](CC(N)=O)n3cc([C@@H](N)C(C)C)nn3)CC2)n1	-6%	-16%
O=C(Nc1ccc2c(c1)OCCO2)c1ccncc1	5%	6%
COCCNC(=O)C(OC(=O)C1=Cc2ccccc2OC1)C(C)C (stereo not drawn)	-15%	-14%
CCOC(=O)C1CCCN(c2c(N3CCOCC3)c(=O)c2=O)C1 (stereo not drawn)	-5%	i
CCC(c1nnnn1-c1c(C)cccc1C)N1CCN(CCN2CCOCC2)CC1 (stereo not drawn)	8%	-4%
O=C1[C@@H]2[C@@H]3C[C@@H]([C@H]4ON=C(c5ccc(Cl)cc5)[C@@H]34)[C@@H]2C(=O)N1c1ccc2c(c1)OCO2	-13%	0%
CCC(C)C(NC(=O)/C(=C\c1ccccc1)NC(=O)c1ccc(OC)cc1)C(=O)O (stereo not drawn)	-2%	-3%
O=C(CN1CCN(Cc2ccccc2Cl)C1=O)N1CCCCCC1	-16%	.
COC(=O)C1=C(c2cccc3c2S(=O)(=O)c2ccccc2-3)C[C@@H]2CC[C@H]1N2C(=O)N1CCOCC1	-15%	-25%
O=C(CN1C(=O)c2ccccc2S1(=O)=O)NCCSCc1cccc(Cl)c1	-12%	-12%
COc1ccc(-c2sc(Nc3ccccc3)n[n+]2-c2ccc(F)cc2)c(C)c1C	-12%	?
Cc1nn(C)c(C)c1/C=N/NC(=O)CCn1cc([N+](=O)[O-])cn1	0%	-13%
